TRPML1 ag: human mucolipin-1 channel agonism. 0.12% of 410,000 active. Q9GZU1. TRPML1-expressing cells, Ca2+ dye fluorescence, FDSS; host cell line not named in the record; reference of the full effect not given here. activation, % (concentration not given with the values); in the data active = activation above about 50%; inconclusive = about 30% to 50%; inactive = below about 30%; also: 0% is about no effect; the text of the record puts the active cut at 80%
Target sequence (Q9GZU1 whole entry, looked up): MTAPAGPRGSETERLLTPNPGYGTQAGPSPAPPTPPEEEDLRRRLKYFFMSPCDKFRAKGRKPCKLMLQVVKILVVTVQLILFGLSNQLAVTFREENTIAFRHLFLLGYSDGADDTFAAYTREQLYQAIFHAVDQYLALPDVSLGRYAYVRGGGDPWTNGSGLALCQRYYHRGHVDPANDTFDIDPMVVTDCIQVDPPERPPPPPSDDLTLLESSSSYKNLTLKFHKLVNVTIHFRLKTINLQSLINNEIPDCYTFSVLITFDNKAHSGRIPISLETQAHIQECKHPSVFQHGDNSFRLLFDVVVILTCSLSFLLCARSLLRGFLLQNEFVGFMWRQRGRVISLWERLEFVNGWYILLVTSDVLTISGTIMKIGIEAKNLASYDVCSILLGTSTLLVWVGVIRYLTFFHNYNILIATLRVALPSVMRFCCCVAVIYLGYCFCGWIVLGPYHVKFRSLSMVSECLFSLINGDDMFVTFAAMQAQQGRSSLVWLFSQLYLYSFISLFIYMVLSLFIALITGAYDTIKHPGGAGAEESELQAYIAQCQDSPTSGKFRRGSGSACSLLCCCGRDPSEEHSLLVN
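Cells: TRPML1-DL, 1X Tet inducer, ~16 h at 37 degrees C/5% CO2. Dye: ABD Ca8 no-wash + quencher, 45-90 min RT. Read: 10 s baseline, compound add, 110 s agonist phase; 54-4 EC80 (4uM final), 110 s antagonist phase.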
TRPML1 blocker: human mucolipin-1 channel inhibition; activity change, negative = inhibition, % (no concentration beside the values); Q9GZU1; 0.02% of 390,000 active; TRPML1-inducible cells, Ca2+ dye fluorescence, FDSS; active compounds read low; inhibition of EC80 agonist-evoked calcium signal; in the data active means activity change below about -50%; inconclusive means about -30% to -50%; inactive means above about -30%;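 also: stimulus is agonist 54-4 at its EC80 concentration; % is scaled to controls: 0 for no effect and ±100 for the full control effect; compound concentration not given in the record; the text of the record puts the active cut at -80%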
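Calcium fluorescence in TRPML1-DL cells induced overnight with Tet: a 110 s read after compound pin addition, then a 110 s antagonist read after challenge with 54-4 at 4 uM final (EC80).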
PINK1 expr mod: PINK1 expression modulation. 0.2% of 410,000 active. AID 624263. PINK1 immunofluorescence, high-content cytometry, 24 h. Potency, µM (highest dose often 76.6 µM), inactives show top-dose activation (PINK1 increase), hits mostly activators; active = well fitted activation curve with a large enough effect; inconclusive = small, poorly fitted or top-dose-only effect; inactive = flat fitted curve, though single readings scatter; cell line not stated here;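 also: potency is read from the fitted curve at half-maximal effect; % of control where 0% means no effect; nearly all actives have a fitted effect of over 65% in size; a mitochondrial uncoupler was the plate control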
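PINK1 protein, normally rapidly degraded, was detected by immunofluorescence after 24 hour compound treatment of a stable cell line. Titration data (5 concentrations) came from laser-scanning cytometry, with CCCP-treated wells as controls.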
CtBP-E1A inh: CtBP/E1A binding inhibition; AlphaScreen GST-E1A/His-CtBP binding, 1536-well; active compounds read low; control for the full effect not named in the record; activity change, % (test concentration not listed); 0.49% of 340,000 active; in the data active means activity change below about -65%; inconclusive means about -30% to -65%; inactive means above about -30%; also: % is scaled to controls: 0 for no effect and ±100 for the full control effect
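Steps: dispense buffer (Tris pH 8.0, NaCl 300 mM, TCEP 1 mM, BSA, Tween 20); add 5X protein mix (GST-E1A, His-CtBP, 125 nM each); pin 23 nL compound; 2 h at 37 °C, dark; add 5X beads (50 ug/mL); 1 h; read.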
D2 ag: human D2 receptor agonism in beta-arrestin assay | P14416 | DiscoveRx PathHunter D2 beta-arrestin, luminescence, 90 min; 100% = 57 uM dopamine signal | activation, % (concentration not given with the values) | 0.084% of 360,000 active; in the data active = activation above about 40%; inconclusive = about 15% to 40%; inactive = below about 15%; also: compound concentration not given in the record; the text of the record calls up to 30% inactive
Target sequence (P14416 whole entry, looked up): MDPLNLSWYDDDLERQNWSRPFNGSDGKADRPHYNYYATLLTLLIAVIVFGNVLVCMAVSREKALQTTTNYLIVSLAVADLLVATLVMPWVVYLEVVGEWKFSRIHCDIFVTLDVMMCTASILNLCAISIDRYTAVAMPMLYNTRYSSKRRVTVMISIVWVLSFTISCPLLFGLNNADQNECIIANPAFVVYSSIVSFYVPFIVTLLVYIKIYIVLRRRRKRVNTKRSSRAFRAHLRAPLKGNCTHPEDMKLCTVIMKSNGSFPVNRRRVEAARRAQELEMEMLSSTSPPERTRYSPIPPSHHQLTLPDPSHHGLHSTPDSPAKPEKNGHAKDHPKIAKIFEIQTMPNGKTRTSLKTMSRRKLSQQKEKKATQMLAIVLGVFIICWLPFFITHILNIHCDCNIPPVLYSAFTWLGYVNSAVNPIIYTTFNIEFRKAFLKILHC
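Agonist mode: compounds alone added to overnight-plated D2 PathHunter cells for 90 min at 37 C, with 57 uM final dopamine (EC100) defining full response. Beta-arrestin recruitment detected by chemiluminescent reagent, read after 1 h at ambient temperature.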
Six1-Eya2 blk: Six1/Eya2 interaction inhibition | AID 651725 | 0.56% of 360,000 active | AlphaScreen GST-Six1/His-Eya2 binding, biochemical; active compounds read low; control for the full effect not named in the record | activity change, % (no concentration beside the values); in the data active = activity change below about -65%; inconclusive = about -30% to -65%; inactive = above about -30%; also: % is scaled to controls: 0 for no effect and ±100 for the full control effect
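GST-Six1 + His-Eya2 (5X stock: 250/500 nM); Tris pH 8.0, 300 mM NaCl, 0.05% BSA, 0.02% Tween 20; GSH donor/Ni acceptor beads; 1 h 37 °C dark; AlphaScreen readout.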
The depositor's hits bear a star; ? = inconclusive; . = not tested or not shown; & = joins results of further samples; [ ] = remark or other dose.

#	Structure	TRPML1 ag	TRPML1 blocker	PINK1 expr mod	CtBP-E1A inh	D2 ag	Six1-Eya2 blk
1	Cc1cnc(C(=O)Nc2ccc(C(C)C)cc2)cn1	0.2	5.8	10.0%	-3.7	-3.4	10.2
2	CCOc1ccccc1NC(=O)CCC(=O)Nc1ccccc1OCC	1.9	17.8	3.8%	2.5	-3.3	1.8
3	Cc1c(C(=O)N2CCN(C(=O)c3ccco3)CC2)sc2nc(-c3ccc(F)cc3)cn12	-0.4	7.1	-0.6%	-3.8	2.5	-8.0
4	O=C(CSc1ncccc1C(=O)O)c1cccc(C(F)(F)F)c1	-0.3	11.9	0.9%	-4.6	-4.0	18.0
5	CCOc1ccc(CCNC(=O)CCC(=O)N2CCOc3ccccc32)cc1OCC	-0.7	2.1	3.9%	0.9	-6.6	-2.5
6	Cc1ccc(-n2[nH]c(C)c(/C=N/c3ccccn3)c2=O)cc1	0.4	-6.0	.	10.8	2.8	4.0
7	CCc1cc2cc(C)cc(C)c2nc1Cl	-1.1	18.7	14.0%	10.4	-2.3	9.6
8	CC(C)CCn1c(=O)c2ccccc2n2c(CCl)nnc12	-0.8	3.1	0.2%	-9.8	-3.8	-12.0
9	CN(c1ccc(Br)cc1)S(=O)(=O)c1ccc2[nH]cc(C(=O)NCCN3CCOCC3)c(=O)c2c1	-0.5	-0.1	2.1%	5.4	-1.2	-0.8
10	Cc1cccc(OCC(=O)NNC(=O)CCc2ccccc2)c1	2.1	11.5	-0.5%	1.6	-4.1	16.9
11	COc1ccc(-n2c(Cn3nc(C(F)(F)F)cc3C)n[nH]c2=S)cc1	2.0	48.2	1.3%	9.8	-3.2	2.5
12	O=C(c1ccc(-n2cccn2)cc1)N1CCc2ccccc2C1	0.2	2.9	-0.9%	2.6	-0.7	8.6
13	CN1CCN(S(=O)(=O)c2ccc(N3CCN(S(=O)(=O)c4cccs4)CC3)nc2)CC1	1.1	40.8	6.9%	6.7	-2.0	?
14	CCOc1ccc(S(=O)(=O)N(CC(=O)NN=C2CCN(C)CC2)c2ccc(C)cc2)cc1	1.4	-12.5	0.7%	-5.4	1.2	8.4
15	COC(=O)c1cccc(CN2C(=O)C(C)Sc3cc(Cl)ccc32)c1 (stereo not given)	1.9	37.2	3.4%	-22.5	0.5	12.1
16	CCOC(=O)CSC1=Nc2ccccc2C2=NC(CC(=O)NCc3ccc(OC)cc3)C(=O)N12 (stereo not given)	0.1	23.5	1.5%	-1.6	-5.0	4.8
17	COc1ccc(S(=O)(=O)NC(C)C(=O)N2CCCC2)cc1C (stereo not given)	-0.1	-4.1	-0.1%	0.3	0.7	0.2
18	CCc1ccc(NC(=O)C2CCN(S(=O)(=O)c3ccc4[nH]c5c(c4c3)CCCCC5)CC2)cc1	1.8	0.0	0.4%	.	.	.
19	CCOc1cc(CN2CCCCC2)ccc1OC	0.5	-13.8	-3.2%[38.3 µM]	2.4	-2.8	4.9
20	O=C(Nc1ccc(S(=O)(=O)N2CCOCC2)cc1)C1CC(=O)N(c2ccc(F)cc2)C1 (stereo not given)	-0.6	1.3	1.1%	29.1	0.2	2.8
21	COc1ccc(C(=O)c2c[nH]c(C(=O)NCC3CCCO3)c2)cc1 (stereo not given)	0.0	7.6	8.6%	-7.8	0.0	?
22	O=C1C=C(N2CCCCCC2)C2(CCCCC2)O1	1.3	-4.9	-0.1%	4.9	1.1	33.5
23	CCOC(=O)Nc1ccc(OCc2nnc3c4ccccc4c(C)nn23)cc1	0.3	?	0.8%	-23.5	0.2	7.3
24	O=C(CNCc1cccnc1)Nc1cc(C(F)(F)F)ccc1N1CCOCC1	-0.3	-3.2	0.2%	.	-5.6	20.5
25	COc1ccc(-c2c(C#Cc3ccsc3)c3cc(Br)ccc3n2C)cc1	-0.1	24.1	3.5%	.	-2.5	6.2
26	Cc1ccc(-c2csc(NC(=O)COC(=O)c3cccc(S(=O)(=O)N4CCOCC4)c3)n2)cc1	4.7	-5.9	0.4%	-8.9	-1.2	-4.3
27	CCc1ccccc1NC(=S)NC1CC2CCC(C1)N2Cc1ccco1 (stereo not given)	0.9	-9.3	-5.9%[38.3 µM]	7.1	0.3	-2.8
28	COc1ccc(C(CNC(=O)c2cccn2C)N2CCOCC2)cc1 (stereo not given)	-1.1	2.5	1.1%	.	-2.9	-0.8
29	Cc1ccc(CN2C(=O)CCC2C(=O)NCc2ccc(F)cc2)cc1 (stereo not given)	-1.0	4.2	2.1%	-1.5	0.8	-1.4
30	COc1ccc(N=C2SC(C(=O)Nc3ccc(OC)cc3)CC(=O)N2CCN2CCOCC2)cc1 (stereo not given)	-0.1	-3.6	-0.4%	-4.6	0.0	-13.4
31	OC(c1ccccc1)(c1ccccc1)C1CCN(CCCOc2ccc(F)cc2)CC1	6.0	.	0.2%	-2.3	.	-9.6
32	CC(=O)OC1c2c(ccc3ccc(=O)oc23)OC(C)(C)C1OC(=O)CC(C)C (stereo not given)	1.2	-10.9	2.0%&1.7%	-1.5	-4.4	-3.9
33	COc1ccc(COC(=O)N/N=C(\C)CC(=O)NCc2ccc(Cl)cc2)cc1	-0.5	-10.1	-0.2%	.	2.2	-1.4
34	CCOC(=O)c1ccc(N2C(=O)CC(N3CCOCC3)C2=O)cc1 (stereo not given)	0.5	6.9	-0.7%	11.4	-2.3	6.4
35	NC(=O)CC(NC(=O)c1ccccc1)c1ccc(NCCCN2CCCC2=O)c([N+](=O)[O-])c1 (stereo not given)	-0.3	1.4	0.8%	2.0	-2.9	0.6
36	COc1ccc(NC(=O)c2nnn(CC(=O)Nc3cccc(C)c3C)c2N)c(OC)c1	1.9	29.5	-0.5%	.	.	.
37	COc1ccccc1OCC(=O)NNC(=O)Nc1ccc(Cl)cc1	1.7	-15.5	2.7%	-0.3	-3.9	-0.3
38	O=c1c2ccccc2ncn1-c1ccc(Cl)cc1[N+](=O)[O-]	1.5	53.8	0.1%	8.3	4.8	-13.9
39	CC12CN(C(=O)c3ccccc3)C3(C#N)CC1CCC23C (stereo not given)	1.1	5.4	-0.5%	15.6	0.7	7.6
40	COc1ccccc1C(=O)Nc1nnc2n1CCS2	1.3	30.6	-4.2%	.	.	.
41	CCc1nc2sc3c(c2c(=O)n1N)CC(C)(C)OC3	-0.3	-13.2	0.4%	0.3	2.1	1.5
42	C=CCn1c(=O)c2ccccc2n2c(SCC(=O)O)nnc12	0.9	10.5	-1.1%	-6.5	6.7	-4.2
43	Cc1ccc(C(=O)N(C)Cc2nc3ccccc3c(=O)[nH]2)cc1NC(=O)c1ccco1	1.0	2.3	-1.2%	-10.0	-0.5	-16.0
44	COc1ccc(C(O)(C(C)C)C(CN2CCOCC2)c2ccc(Cl)cc2)cc1 (stereo not given)	1.3	67.5	15.7%	.	-6.6	-5.9
45	Cc1cc(C)cc(N2C(=O)CSC23C(=O)N(CC(=O)Nc2ccc(F)cc2F)c2ccccc23)c1 (stereo not given)	1.1	3.5	-4.7%	.	.	.
46	COc1ccc(C(=O)C2CCCN(Cc3ccc4c(c3)OCCO4)C2)cc1F (stereo not given)	0.1	-7.2	3.2%	-7.1	-8.9	-3.1
47	O=C(NNc1c(Cl)cccc1Cl)c1cccs1	-0.9	3.7	3.0%	5.0	-4.6	-2.6
48	O=C(CN1CCN(c2ccccc2O)CC1)NNC(=O)c1ccc(Cl)cc1	-0.2	8.5	-0.4%	-4.9	2.1	-4.9
49	O=C(Nc1cccc(F)c1)Nc1ccc(Cl)cn1	1.5	-8.4	0.5%	2.1	4.2	21.1
50	COc1cc(-c2coc3c(C(=O)NC4CCCCC4)cccc23)ccc1O	-0.9	.	?	-13.9	2.7	-12.9

New compounds follow
#	Structure	TRPML1 ag	TRPML1 blocker	PINK1 expr mod	CtBP-E1A inh	D2 ag	Six1-Eya2 blk
51	Cc1ccccc1C(=O)N1CCC2CC1c1cc(-c3ccc(F)cc3)ccc12 (stereo not given)	-0.7	8.7	24.1%	-4.3	-1.5	-5.7
52	CN1C(=O)/C(=C/c2ccc(-c3ccccc3[N+](=O)[O-])o2)SC1=Nc1ccc(Cl)c(C(=O)O)c1	0.8	17.4	6.7%	-2.1	3.7	?
53	Cc1[nH]c(=S)[nH]c(=O)c1CCC1OCCO1	0.0	6.0	0.2%	.	1.2	7.7
54	CCc1ccc(-c2cc(C)no2)cc1S(=O)(=O)NCCc1ccccc1	-0.2	2.8	3.0%	11.8	4.3	4.2
55	N#Cc1cc([N+](=O)[O-])ccc1Oc1cccc(/C=N/NC(=O)c2ccc(Cl)cc2)c1	0.1	7.6	12.1%	11.8	1.1	-4.5
56	O=C(COc1ccccc1)N=C1SC2CS(=O)(=O)CC2N1c1ccccc1 (stereo not given)	0.7	22.4	-0.8%	7.2	6.8	4.0
57	Cc1cc(C(=O)Nn2c(C3CCCCC3)nc3ccccc3c2=O)ccc1[N+](=O)[O-]	0.5	-10.1	15.8µM*	.	3.4	-2.7
58	O=[N+]([O-])c1cc(/C=N/N2CCCCC2)ccc1Cl	1.4	-23.2	0.6%	?	4.0	?
59	C#CC(C)(C)NC(=O)c1ccccc1OC	-0.3	12.2	0.2%	7.6	-2.4	4.8
60	CCOC(=O)c1c(C)nc(C)c(C(=O)OCC)c1-c1ccc(OC)cc1	2.3	7.7	-0.2%[38.3 µM]	9.4	0.1	0.4
61	O=C(COC(=O)Cn1cnc2ccccc21)Nc1cc(S(=O)(=O)N2CCOCC2)ccc1Cl	0.3	24.4	6.8%	-4.4	0.9	3.9
62	O=C(Nc1cccc([N+](=O)[O-])c1)C12CC3CC(C1)CC(n1cnc([N+](=O)[O-])n1)(C3)C2	0.8	-4.2	0.1%	-2.6	-0.7	-4.6
63	O=C(O)/C=C/c1cn(-c2ccccc2)nc1-c1ccc2c(c1)OCCO2	1.0	36.2	-1.9%	0.6	-1.6	-3.6
64	O=S1(=O)N=CN(Cc2cccc(F)c2)c2ccccc21	-0.7	12.1	0.8%	2.7	-2.7	0.5
65	Cc1ccc(Nc2ccc(N)cc2S(=O)(=O)O)cc1	-0.3	5.2	1.1%	.	?	-10.4
66	Nc1ccc(S(=O)(=O)Nc2nccc(/C=C/c3cccc(Br)c3)n2)cc1	0.0	22.2	6.7%	?	-1.4	-24.8
67	CN(C)C(=O)c1cc(C(=O)Cc2ccccc2)c[nH]1	1.1	3.6	0.4%	.	-4.5	3.7
68	Cc1cc(-c2nnc(CSc3nnc(NC(=O)c4ccc(C(C)(C)C)cc4)s3)o2)ccc1[N+](=O)[O-]	-0.2	-1.9	?	-10.6	-3.2	-4.2
69	COc1cccc(/C=N/NC(=O)Cn2ccnc2C)c1	-0.3	14.0	-0.1%	4.9	-1.8	-1.0
70	CCn1c(SCC(=O)Nc2ccc3c(c2)c2ccccc2n3CC)nnc1-c1ccco1	-0.2	0.1	.	10.2	0.5	?
71	O=C(NCc1ccco1)c1ccc2sc([C@H]3C[C@H](O)[C@@H](CO)O3)nc2c1	-0.2	.	1.8%	-17.6	2.3	1.1

Compound activity (PubChem BioAssay)
